Screening data as filed in PubChem BioAssay.
ALR inh – blocks human ALR sulfhydryl oxidase activity; P55789; purified ALR, DTT oxidation, H2O2 HRP-luminol luminescence; inhibition, % (test concentration not listed); 3.8% of 290,000 active; AID 485317;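 active means mean and each replicate at 75% or more; inconclusive means only one of the two met; inactive means neither met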;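 further: stock transfer was 7.5 nL into about 7.5 µL; 0% = neutral wells and 100% = wells with inactivated enzyme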
Target sequence (P55789 whole entry, looked up): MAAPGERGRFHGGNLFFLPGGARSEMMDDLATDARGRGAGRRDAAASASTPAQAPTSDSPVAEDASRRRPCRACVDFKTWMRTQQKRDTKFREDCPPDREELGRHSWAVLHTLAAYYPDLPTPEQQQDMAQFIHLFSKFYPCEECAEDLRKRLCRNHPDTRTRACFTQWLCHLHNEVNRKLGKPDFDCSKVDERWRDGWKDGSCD
FGF22 binding – FGF22 (human) thermal shift binding. Q9HCT0. calls only at 9.99 µM. recombinant FGF22 thermal shift, SYPRO orange fluorescence; percent of sucrose octasulfate shift, DMSO zero. 1.5% of 340,000 active;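 active means melting point raised past a set limit in the mean and every replicate; inconclusive means no clear call; three in four hits are not shown here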
Target sequence (Q9HCT0 whole entry, looked up): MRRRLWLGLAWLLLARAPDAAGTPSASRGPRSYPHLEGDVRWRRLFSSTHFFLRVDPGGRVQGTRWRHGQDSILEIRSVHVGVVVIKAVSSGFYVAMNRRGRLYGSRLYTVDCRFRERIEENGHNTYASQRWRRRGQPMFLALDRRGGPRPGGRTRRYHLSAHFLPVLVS
Ecoli growth – E. coli growth inhibition. Escherichia coli growth, OD600, 23 h; active compounds read low. OD600 absorbance (no concentration beside the values). 0.21% of 330,000 active;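 active means OD600 absorbance below the run mean of sample wells minus 3.6 SD, in any replicate, cut at about 0.56 in these data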;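 further: stock transfer was 300 nL into about 60 µL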
AF4-AF9 inh – inhibitors of human MLL-AF4/AF9 interaction. P42568. AlphaScreen, biotin-AF4 peptide binding to FLAG-AF9. inhibition, % at 10 µM. 0.47% of 350,000 active. AID 651704;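 active means every replicate reaching a set inhibition limit, whatever the replicate mean, cut at about 25% in these data; inconclusive means mean inhibition reaches that limit but some replicates miss it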;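 further: 0% = plate neutral control median and 100% = total signal loss; the record names both 10 and 1 µM as test concentration; the first replicate is given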
Target sequence (P42568 whole entry, looked up): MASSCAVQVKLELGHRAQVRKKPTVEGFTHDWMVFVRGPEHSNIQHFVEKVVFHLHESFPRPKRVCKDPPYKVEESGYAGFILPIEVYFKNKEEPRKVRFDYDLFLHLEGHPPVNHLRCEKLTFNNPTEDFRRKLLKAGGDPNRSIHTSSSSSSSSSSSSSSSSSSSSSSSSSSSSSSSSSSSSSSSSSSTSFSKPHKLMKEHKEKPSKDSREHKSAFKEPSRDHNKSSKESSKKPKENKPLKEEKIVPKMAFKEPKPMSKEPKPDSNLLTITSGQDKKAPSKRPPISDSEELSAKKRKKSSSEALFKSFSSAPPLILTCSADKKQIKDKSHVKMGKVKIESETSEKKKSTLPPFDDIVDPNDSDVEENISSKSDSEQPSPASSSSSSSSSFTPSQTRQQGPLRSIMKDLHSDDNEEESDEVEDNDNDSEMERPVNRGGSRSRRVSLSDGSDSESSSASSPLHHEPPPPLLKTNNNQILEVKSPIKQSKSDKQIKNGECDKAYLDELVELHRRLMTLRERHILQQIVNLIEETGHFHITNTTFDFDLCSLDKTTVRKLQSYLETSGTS
Vif TR-FRET – inhibitors of Vif binding to APOBEC3G peptide, primary screen, biochemical, TR-FRET, GST-Vif 1-94, biotin-A3G peptide, dose response retest (AID 1117319) | TR-FRET GST-Vif / biotin-A3G peptide binding; higher % means a stronger effect; test concentration not given here; strong numbers were not always called active | one-dose inhibition, %; IC50 in µM for titrated hits | 0.57% of 260,000 active;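 active means above the screen mean plus three standard deviations and confirmed in dose response; inconclusive means results disagree or hit not tested in dose response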;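 further: Vif residues 1-94 fused to GST binding biotinylated APOBEC3G peptide 110-148; 0% = full assay without inhibitor and 100% = GST in place of GST-Vif; retest series ran down from 100 µM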
HNF4A DNA FP – change in binding of human HNF4 alpha to DNA; P41235; HNF4a-FITC DNA binding, fluorescence polarization, 1 h; activity change, % at 10 µM; 0.3% of 360,000 active; in the data active means activity change above about 30%, passing the limit was not always enough;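 further: controls were the assay level and a saturating level of protein; the project sought stronger binding though the title names inhibitors; some compounds called inactive have numbers as strong as hits; positive values seem to mean higher polarization but the record does not say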
Ecoli rRNA inh – inhibitors of bacterial rRNA selective over humanized ribosomes; E. coli WT GFP vs humanized-ribosome RFP mutants, fluorescence, 24 h; active compounds read low; DMSO median 0, no signal -100; GFP signal change (wild-type ribosome), % (test concentration not listed); 1.6% of 350,000 active; AID 720706;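 active means significant combined selectivity score with lowered wild-type GFP, culture density cut under 30%, mutant RFP and density less affected; inactive means any of these conditions unmet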; further: one replicate is shown; some compounds called inactive have numbers as strong as hits
Ecoli rRNA inh OD600 – also measured in Ecoli rRNA inh; calls as there; OD600 change, %; measured here: OD600 growth;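 optical density of the mix in the first replicate; 0 = DMSO median and -100 = no signal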
Ecoli rRNA inh RFP – second read-out of Ecoli rRNA inh, no call of its own (marks repeat the call); RFP signal change, %; measured here: RFP humanized mutant strains;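 first replicate; 0 = DMSO median and -100 = no signal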
Active calls of the source: *; i = inactive; u = inconclusive; x = no result given. These rows are one share of the data (hit frequency here may not be typical).

Value order – Ecoli rRNA inh OD600, ALR inh, Vif TR-FRET, AF4-AF9 inh, HNF4A DNA FP, FGF22 binding, Ecoli growth, Ecoli rRNA inh, Ecoli rRNA inh RFP
Cc1cc(C)c(C(=O)CC2(O)C(=O)Nc3ccccc32)cc1C (centres undefined)
  x, -2, 1%, x, 0.1, x, 0.75, x, x
CC(=O)c1ccc(NC(=S)Nc2cccc3cnccc23)cc1
  -18, 25, u, -1.5, 1.0, i, 0.64, 28, 9.3
CN1CCc2c(sc(NC(=O)c3ccc(S(=O)(=O)N4CCCC4)cc3)c2C(N)=O)C1
  6, 4, x, -5.7, 36*, i, 0.68, -1, -0.6
Cc1nnc(SCC(=O)N2CCCCC2)n1CC1CCCO1 (centres undefined)
  x, -7, 0%, x, 1.3, x, 0.75, x, x
CCOc1ccc(C(=O)NCCN2CCOCC2)cc1
  8, x, x, -1.4, -1.2, i, 0.74, -9, 0.5
CCCOCC1CC2(SC(=Nc3ccc(C)cc3)NC2=O)C(=O)O1 (centres undefined)
  x, 7, -3%, x, -1.7, x, 0.69, x, x
CC(C)[C@@H]1Cc2[nH][nH]c(=O)c2[C@H](C(C)C)O1
  -27, x, x, -1.2, -1.1, i, x, -8, -6.4
CN(C)c1ccc2c(=O)cc[nH]c2c1
  -6, x, x, -4.8, 9.5, i, x, -5, -6.3
CN(C)CCCNC(=O)C[C@H]1CC[C@@H]2[C@@H](COc3ccc(NC(=O)c4cccc(F)c4)cc3C(=O)N2C)O1
  3, x, x, 0.7, x, i, x, 2, -1.4
COC(=O)C1=CO[C@@H](O[C@@H]2O[C@H](CO)[C@@H](O)[C@H](O)[C@H]2O)[C@H]2[C@@H]1C(=O)C[C@@H]2C
  -2, -2, x, 7.5, -2.0, i, 0.82, 5, -1.8
O=C(C[C@@H]1CC[C@H](NC(=O)Nc2ccccc2F)[C@@H](CO)O1)NCc1ccc(Cl)cc1
  -2, x, x, -0.4, x, i, x, 2, 0.5
O=C1COc2ccc(-c3csc(NCC4CCCO4)n3)cc2N1 (centres undefined)
  x, 87*, 20%, x, -1.7, x, 0.7, x, x
O=C(CCCNS(=O)(=O)c1cccc2nsnc12)NCCN1CCN(c2ccccc2F)CC1
  -1, 0, 10%, 2.1, 3.9, i, 0.62, 2, -4.2
Cc1cc(NC(=O)CSc2nc3c(c(=O)n2-c2ccccc2)SC(C)C3)no1 (centres undefined)
  9, 8, -6%, -1.9, -0.8, i, 0.8, -1, 4.1
CN(Cc1ccccc1)Cc1nc2scc(-c3ccccc3)c2c(=O)[nH]1
  -74, 4, -2%, 3.8, 2.7, i, 0.73, -29, 6.0
Cc1ccc(-n2nc3c([n+]2[O-])CCc2c-3no[n+]2[O-])cc1
  x, -9, 5%, x, 3.0, x, 0.71, x, x
O=C(O)c1ccccc1C(=O)NC1Cc2ccccc2C1
  x, -5, -4%, -0.8, 4.0, i, 0.69, x, x
COc1ccc(C(=O)NCC(=O)OCCOc2ccc(Cl)cc2)cc1OC
  -16, 2, 3%, 4.2, -1.2, i, 0.64, 3, 10
CCN1[C@@H]2c3ccc(C4=CCCCC4)c(=O)n3C[C@H]1[C@H](CO)[C@H]2C(=O)N1CCCCC1
  8, x, x, -2.0, x, i, x, 0, -1.8
C[C@@H]1CN([C@H](C)CO)C(=O)c2cc(NS(=O)(=O)c3ccc(F)cc3)ccc2O[C@@H]1CN(C)C(=O)Nc1ccc(C(F)(F)F)cc1
  -12, x, x, -0.5, x, i, x, -5, 0.2
Cc1ccccc1CNC(=O)C(=O)NCC1OCCCN1S(=O)(=O)c1cccs1 (centres undefined)
  3, -2, x, -4.0, -0.1, i, 0.69, 3, 1.4
O=C(N[C@H]1CC[C@H](CCn2cc(C3(O)CCCC3)nn2)O[C@H]1CO)C1CC1
  0, x, x, -0.2, x, i, x, 1, -2.0
CC1=Nc2ccc(C)cc2/C1=C/c1c(N)n2nc(CC(=O)N3CCOCC3)sc2nc1=O
  15, 7, x, -3.4, 10, i, 0.72, 48, 51
O=C(C[C@H]1CC[C@@H](NC(=O)C2CCOCC2)[C@@H](CO)O1)Nc1ccc(-c2ccccc2)cc1
  -8, x, x, -0.1, x, i, x, -2, 0.9
C[C@@H]1CN([C@H](C)CO)C(=O)Cc2cc(NC(=O)Cc3ccccc3)ccc2O[C@H]1CN(C)Cc1ccc(C(=O)Nc2ccccc2N)cc1
  4, x, x, -3.6, x, i, x, -1, 0.4
Cc1cccc(S(=O)(=O)N2CCCCN3[C@H](CO)[C@H](c4ccc(C#C[C@@H](C)O)cc4)[C@H]3C2)c1
  2, x, x, 1.4, x, i, x, 0, -1.9
O=C(CCn1c(=S)[nH]c2cc3c(cc2c1=O)OCO3)N1CCc2ccccc2C1
  x, 18, -14%, x, x, x, 0.69, x, x
C[C@H]1CN([C@@H](C)CO)C(=O)c2cccc(NS(=O)(=O)c3cccs3)c2O[C@H]1CN(C)S(=O)(=O)c1cccs1
  -5, x, x, -12, x, i, x, -5, -0.2
C[C@@H]1CN([C@@H](C)CO)C(=O)c2cccc(NC(=O)c3nc4ccccc4s3)c2O[C@@H]1CN(C)Cc1ccc(Oc2ccccc2)cc1
  7, x, x, -8.6, x, i, x, 3, 0.1
Cc1nnsc1-c1c(C(=O)Oc2ccccc2)c(C)nn1-c1ccccc1
  1, -1, 27%, -0.1, 3.9, i, 0.62, -12, -2.1
Cc1cc2nc(-c3ccccc3)c(Cc3cccc(Cl)c3)n2c(C)c1Br
  -12, x, x, 3.3, 5.7, i, x, -1, -2.1
CSc1nc2cc(S(=O)(=O)N3CCCCC3)ccc2s1
  4, x, -8%, -2.7, -0.9, i, 0.68, -2, 0.2
CCOC(=O)CSc1nc2ccccc2c(=O)n1Cc1ccco1
  -11, -21, 24%, -35, -2.0, i, 0.65, -12, -7.0
O=C1CN(S(=O)(=O)c2ccccc2)C[C@H]2[C@H](c3ccc(Br)cc3)[C@@H](CO)N12
  2, x, x, -1.5, x, i, x, -3, 1.2
CCN(CC)S(=O)(=O)c1ccc(NC(=O)CN(c2cccc(F)c2)S(C)(=O)=O)cc1
  x, -27, -3%, x, 4.3, x, 0.68, x, x
C[C@@H]1CN([C@H](C)CO)C(=O)c2cccc(NS(=O)(=O)c3cn(C)cn3)c2O[C@H]1CN(C)S(=O)(=O)c1cccs1
  -2, x, x, -4.4, x, i, x, 0, -1.3
O=C(NCCc1ccco1)C(=O)NCC1OCCCN1S(=O)(=O)c1ccccc1 (centres undefined)
  -9, -7, 6%, 2.9, 0.2, i, 0.68, -2, 0.7
O=C(NCCC1CC1(Cl)Cl)Nc1ccccc1 (centres undefined)
  -11, 3, 11%, 0.4, 0.2, i, 0.67, -12, -2.1
C[C@@H](NC(=O)c1nc[nH]c1C(=O)N[C@@H](Cc1ccccc1)C(=O)OC(C)(C)C)c1ccccc1
  11, -12, -2%, 1.4, -0.2, i, x, 18, 4.8
Cc1ccc2nc(Cl)c3cc(C(=O)NCCCN4CCCC4)sc3c2c1
  -15, x, -10%, 9.2, 11, i, 0.71, -7, 3.7

Random excerpt: 4 compounds from above.
Value order – Ecoli rRNA inh OD600, ALR inh, Vif TR-FRET, AF4-AF9 inh, HNF4A DNA FP, FGF22 binding, Ecoli growth, Ecoli rRNA inh, Ecoli rRNA inh RFP
Cc1ccc2nc(Cl)c3cc(C(=O)NCCCN4CCCC4)sc3c2c1
  -15, x, -10%, 9.2, 11, i, 0.71, -7, 3.7
C[C@@H](NC(=O)c1nc[nH]c1C(=O)N[C@@H](Cc1ccccc1)C(=O)OC(C)(C)C)c1ccccc1
  11, -12, -2%, 1.4, -0.2, i, x, 18, 4.8
O=C(NCCc1ccco1)C(=O)NCC1OCCCN1S(=O)(=O)c1ccccc1 (centres undefined)
  -9, -7, 6%, 2.9, 0.2, i, 0.68, -2, 0.7
CCN(CC)S(=O)(=O)c1ccc(NC(=O)CN(c2cccc(F)c2)S(C)(=O)=O)cc1
  x, -27, -3%, x, 4.3, x, 0.68, x, x

The list goes on:
Value order – Ecoli rRNA inh OD600, ALR inh, Vif TR-FRET, AF4-AF9 inh, HNF4A DNA FP, FGF22 binding, Ecoli growth, Ecoli rRNA inh, Ecoli rRNA inh RFP
O=C(CN1C(=O)NC2(CCCCC2)C1=O)Nc1ccc2c(c1)CCC2
  0, -8, 13%, -0.5, -4.6, i, 0.68, -1, 4.0
OC(COc1cccc2ccccc12)CN1CCOCC1 (centres undefined)
  6, x, 6%, -8.8, -4.1, i, 0.62, 5, 1.5
COc1ccc(OCC(=O)NC2CCCCCCC2)cc1
  -11, x, x, -0.5, -2.0, i, 0.71, -2, 0.7
Cc1ccc(Nc2cc(-c3ccccc3)nc3ncnn23)cc1
  28, -9, -4%, 2.3, 3.8, i, 0.64, 1, -1.5
O=S(=O)(NCC(c1ccco1)N1CCc2ccccc2C1)c1ccc(F)cc1 (centres undefined)
  -41, -9, -2%, -1.2, 0.8, i, 0.62, 5, -2.5
Cc1nc(CCNS(=O)(=O)c2cccs2)cs1
  x, 1, 1%, x, -3.2, x, 0.69, x, x
O=C(NCCCN1CCCC1=O)c1cccc(C(F)(F)F)c1
  x, -3, -5%, x, 2.7, x, 0.65, x, x
COC(=O)c1ccccc1NC(=O)C(=O)NCC1CCCO1 (centres undefined)
  x, -9, -7%, x, -2.1, x, 0.64, x, x
CCOC(=O)C1CCCN(S(=O)(=O)CCNC(=O)c2ccccc2)C1 (centres undefined)
  3, -1, -7%, -0.8, -0.9, i, 0.71, 4, -1.0
O=C(/C=C/Nc1ccc(F)c(F)c1)c1cccs1
  0, 38, 23%, -12, 3.3, i, 0.67, 5, 2.0
COc1ccc(CN(C)C[C@@H]2Oc3c(NC(=O)C4CCCCC4)cccc3C(=O)N([C@@H](C)CO)C[C@@H]2C)cc1
  7, x, x, 1.8, x, i, x, 0, -0.3
CC(=O)c1ccc(NC(=O)c2ccc(S(=O)(=O)N3CCCC3)cc2)cc1
  x, -2, 14%, x, 2.2, x, 0.63, x, x
Cc1ccc(C)c(Nc2ncnc3nc[nH]c23)c1
  -4, -1, -5%, -3.0, -2.3, i, 0.75, 2, -5.3
Cc1c(C(=O)NC2CCCCC2)sc2ncnc(N3CCN(c4ccccc4)CC3)c12
  -11, 12, x, 1.9, -0.8, i, 0.72, -10, 2.7
CCOC(=O)c1oc2ccccc2c1COC(=O)C(C)NC(=O)c1ccco1 (centres undefined)
  -5, x, 1%, -2.1, -0.5, i, 0.71, -3, 3.8
COC(=O)c1c(C)nc(C)c(C(=O)OC)c1-c1ccc(OC)cc1
  -10, -2, x, -4.2, -0.9, i, 0.64, -7, -1.1
CN(C)CCN(Cc1cccs1)S(=O)(=O)c1csc(C(N)=O)c1
  11, 0, x, -0.7, -0.3, i, 0.65, 3, -1.8
CC(=O)c1ccc(N2CCN(C(=O)Nc3ccc(F)cc3F)CC2)cc1
  -10, -1, u, -2.0, 4.0, i, 0.7, -9, -2.1
COc1cnc(SCc2ccc(Cl)cc2Cl)nc1Cl
  x, 98*, 31%, x, -2.1, x, 0.7, x, x
Cc1noc(C)c1COc1ccccc1C(=O)NC(C)c1ccc(F)cc1 (centres undefined)
  -4, x, -1%, -20, -1.1, i, 0.67, -4, 2.0
NC(=O)CCSC(=S)N1CCOCC1
  8, -4, 6%, -2.2, -3.9, i, 0.7, 3, -6.9

As entered above:
AF4-AF9 inh with CCOC(=O)c1oc2ccccc2c1COC(=O)C(C)NC(=O)c1ccco1 (centres undefined) : -2.1
Ecoli growth with CN(C)CCN(Cc1cccs1)S(=O)(=O)c1csc(C(N)=O)c1 : 0.65
